H5N1 antiviral: antiviral screen in MDCK cells, H5N1 avian flu | cytopathic effect, luminescence, 72 h; active compounds read high; no value below 0 was filed and about half of the inactive calls have no number; reference of the scale not given here | inhibition, % at 50 µM | 96,000 tested, 0.07% active | AID 740; in the data active means inhibition above about 25%
Numbers without * were called inactive; i = inactive.

SMILES	H5N1 antiviral
CC(C)[C@H](NC(N)=O)C(=O)Nc1ccc2c(c1)CCC2	0.7
COc1ccc(OC)c(CN2CCCC(C(=O)N3CCCCC3)C2)c1 (configuration not stated)	0.8
COC(=O)CN1C(=O)C(O)(CC(=O)c2ccc(C)o2)c2ccccc21 (configuration not stated)	0.8
COc1cccc(C(=O)Nc2c3c(nn2-c2cccc(C)c2C)CS(=O)(=O)C3)c1OC	i
CC(=O)Nc1ccc(NCC(O)COc2ccccc2)cc1 (configuration not stated)	i
CC(C(=O)Nc1ccc(C(=O)O)cc1)N1C(=O)c2ccccc2C1=O (configuration not stated)	i
C#CCN1C(=O)C2C(C(=O)NC)C3C=CC2(O3)C1C(=O)NCc1ccc(OC)cc1 (configuration not stated)	i
COc1ccc(N2CCCn3c2nc2c3c(=O)n(CCCc3ccccc3)c(=O)n2C)cc1	1.2
CCSC1=C(C#N)C(c2ccccc2Cl)C(C(=O)c2cccs2)C(O)(C(F)(F)F)N1 (configuration not stated)	i
Cc1ccc(Oc2cc(C#N)c(C#N)cc2-n2nnc3ccccc32)cc1C	i
CCc1ccc(Nc2nnc(SCc3cc(=O)n4ccsc4n3)s2)cc1	i
CC(NS(=O)(=O)c1ccc(CCC(=O)NCc2cccnc2)cc1)c1ccccc1 (configuration not stated)	0.4
O=C(NCc1cccs1)C1CCCN(c2ncccn2)C1 (configuration not stated)	i
CCN(CC)S(=O)(=O)c1ccc2nc(NC(=O)c3cccs3)sc2c1	2.0
CCCCCc1nc2c(=O)[nH]c3ccccc3c2o1	1.5
CCOc1ccc(CNC(=S)N/N=C\c2ccc([N+](=O)[O-])cc2)cc1	1.2
Cc1cc(C(=O)CSc2nnc(-c3cccnc3)n2-c2ccccc2F)c(C)n1C	3.1
Oc1ccccc1-c1nc(N2CCCC2)c2ccccc2n1	0.7
CCCS(=O)(=O)N1CCC(C(=O)NCCN2CCCC2)CC1	0.6
CCOc1c2ccc(C(=O)NCc3ccccc3OC)cc2nn1CC	0.4
O=C(CCn1c(=S)[nH]c2ccccc2c1=O)NCCCN1CCOCC1	i
Fc1ccccc1OCCCCCCN1CCCC1	i
CCn1c(CSc2nnc(C)n2-c2ccccc2)nc2cc(S(=O)(=O)N(C)C)ccc21	1.1
CCN(CC)S(=O)(=O)c1cc(C(=O)N2CCc3ccccc32)ccc1Cl	i
Cc1ccc(NC(=O)C2(NC(=O)c3cccc(N4C(=O)CSC4c4ccccc4)c3)CCCCC2)cc1 (configuration not stated)	i
The list goes on.
SMILES	H5N1 antiviral
CC(C)c1ccc(N(CC(=O)Nc2ccc(S(=O)(=O)N3CCOCC3)cc2)S(C)(=O)=O)cc1	0.3
Cc1ccc2c(c1)CC1(CN2C)C(=O)NC(=O)N(c2cccc(C)c2C)C1=O (configuration not stated)	0.1
COc1cc(-c2nnn(CC#N)n2)ccc1OCc1ccccc1	i
O=C(CCC(=O)c1cccs1)OCc1nnc(-c2ccccc2)o1	i
COc1ccc(NC(=O)c2oc3ccccc3c2NC(=O)C(C)(C)C)cc1	0.2
Cc1ccccc1-n1nc(C(=O)O)cc1-c1ccccc1	0.9
CCc1ccc(/C=C/C(=O)c2c(C)cc(C)[nH]c2=O)cc1	25
O=C(Oc1ccccc1)c1ccc2nccnc2c1	i
CCn1c(COc2cccc(C)c2)nnc1SCC(=O)Nc1cccc(C(=O)O)c1	0.5
CCCCn1c(O)c(C(C)=NCc2cc(OC)cc(OC)c2)c(=O)[nH]c1=O	0.2
CCOc1cc(/C=C2/SC(=Nc3ccccc3)N(Cc3cccnc3)C2=O)ccc1OCC#N	i
COCc1cc(=O)[nH]c(/N=C(\N)Nc2ccc(C)cc2)n1	i
Cc1ccc(N(C(C)C(=O)Nc2ccc(S(=O)(=O)N3CCOCC3)cc2)S(C)(=O)=O)cc1C (configuration not stated)	2.0
Cn1cc(SCC(=O)N2CCOCC2)c2ccccc21	2.2
CCOC(=O)c1[nH]c(C)c(C(=O)NCc2cccnc2)c1C	0.4
Cc1cc(Oc2ccc(=O)n(C)n2)nc(Oc2ccc(=O)[nH]n2)n1	i
COc1cccc(C(=O)CN2C3=NCCCN3c3ccccc32)c1	1.3
Cn1nnnc1SCc1ccccc1[N+](=O)[O-]	i
O=S1(=O)C[C@@H](N2CCOCC2)[C@H](N2CCOCC2)C1	0.3
Cc1ccc(S(=O)(=O)Nc2c(C)n(C)n(-c3ccccc3)c2=O)cc1	i
COc1ccc(OC)c(Nc2nc(-c3sc(NC(=O)C(C)(C)C)nc3C)cs2)c1	i
Cc1onc(-c2c(F)cccc2Cl)c1C(=O)NC1=NCCS1	0.1
CC(C)(C)c1ccccc1OCC(=O)NCCC(=O)O	i
O=c1[nH]c(CSc2nnc(-c3ccccc3)n2C2CCCCC2)nc2ccccc12	0.1
CN(C)CC(=O)Nc1ccc(S(N)(=O)=O)cc1	1.5

A stretch from the list above, for reference:
SMILES	H5N1 antiviral
Cc1onc(-c2c(F)cccc2Cl)c1C(=O)NC1=NCCS1	0.1
CC(C)(C)c1ccccc1OCC(=O)NCCC(=O)O	i
O=c1[nH]c(CSc2nnc(-c3ccccc3)n2C2CCCCC2)nc2ccccc12	0.1
CN(C)CC(=O)Nc1ccc(S(N)(=O)=O)cc1	1.5

Next structures.
SMILES	H5N1 antiviral
Cc1noc(C)c1S(=O)(=O)NCCN1CCN(c2ccccc2)CC1	1.0
CN(C)S(=O)(=O)N(Cc1ccc(Br)cc1)c1ccccc1	i
Oc1[nH]c2ccccc2c1C=Nc1ccc2c(c1)OCCO2	2.1
COc1ccccc1N1CCN(C(=O)c2cc(-c3ccc(Cl)c(Cl)c3)on2)CC1	i
CCOC(=O)CNC(=O)CSc1ncnc2c1cnn2-c1ccccc1	i
CC(=O)Nc1cc(NC(C)=O)cc(C(=O)OCC(=O)N2CC(C)OC(C)C2)c1 (configuration not stated)	0.7
C/C(N)=C(\C#N)C(=O)NCCc1ccccn1	i
O=C(Nc1cccnc1Cl)c1cc(-c2ccco2)on1	0.2
O=C(NCCCN1CCCC1=O)NC12CC3CC(CC(C3)C1)C2	0.7
Cc1cccc(-n2nnc(C(=O)Nc3ccc(F)cc3)c2N)c1	i
COc1ccc(C(=O)CSc2nnc(CNC(=O)c3ccc(OC)c(OC)c3)n2C)cc1	i
C=CCNC(=S)NNC(=O)C(CCCC)CC(C)O (configuration not stated)	0.8
CC1CCCCC1NS(=O)(=O)c1ccc(S(=O)(=O)N2CCN(CCC#N)CC2)cc1 (configuration not stated)	0.5
N#CCCN(CCC#N)C(=O)COc1ccc(Cl)cc1Cl	i
COc1ccccc1NC(=O)c1nn(-c2ccc(F)c(F)c2)ccc1=O	0.8
CCC(CC)C(=O)c1c[nH]c(C(=O)NCCCN2CCOCC2)c1	1.1
C=CCn1c(SCC(=O)Nc2cc(C)c(Cl)cc2OC)nnc1-c1ccco1	i
COc1ccccc1N1C(=O)NC(=O)C(CCc2ccncc2)(CCc2ccncc2)C1=O	0.1
CCc1ccc(CCC(=O)Nc2sc(C)c(C)c2C(=O)OC)o1	i
Cc1ccc(C(=O)n2nc(-c3ccccc3)nc2NCc2ccco2)cc1	i
O=C1C=C(NCC2CCCO2)CC(c2ccccc2)C1 (configuration not stated)	0.4
CC(C)COP(=O)(c1ccc(N(C)C)cc1)C(O)c1ccncc1 (configuration not stated)	i
COC(=O)c1sccc1NC(=O)Nc1ccc(Cl)c(Cl)c1	i
C=CCn1c(=O)c2c3c(sc2n2c(Nc4ccc(C(=O)OCC)cc4)nnc12)CCCC3	i
CCOc1ccc(NCCC#N)cc1	i
Other entries follow:
SMILES	H5N1 antiviral
C=CCNC(=O)c1onc(CSc2cccc(Cl)c2)c1C(=O)O	i
COc1ccc(OC)c(S(=O)(=O)N2CCc3ccccc32)c1	0.4
N/C(=N\OC(=O)Cc1cccs1)c1ccccc1	i
O=C(OCC1OC2C(Oc3nc(=O)ccn32)C1O)c1ccccc1 (configuration not stated)	i
O=C(Nc1cccc(-c2nc3ccccc3s2)c1)c1ccc2c(c1)OCO2	4.7
Cc1cccc(NC(=O)CSc2nnc(-c3cc(C)n(-c4ccccc4)c3C)o2)c1C	i
CC(C)(C)Nc1nc(NC(C)(C)C)nc(-n2ccnc2)n1	2.9
COC(=O)CNC(=O)c1ccc2c(c1)S(=O)(=O)c1ccccc1C2=O	i
CC(=O)Nc1ccc2c(c1)nc(CCN1CCC(C)CC1)n2C	0.3
c1ccc2[nH]c(CN3CCN(c4ncnc5c4oc4ccccc45)CC3)nc2c1	3.0
Cc1cc(C)cc(C(=O)N(c2ccccn2)C(C)c2ccco2)c1 (configuration not stated)	0.7
CC(CCc1ccco1)NC(=O)Nc1cccc(F)c1 (configuration not stated)	i
COC(=O)COc1ccc(Cl)cc1C1Nc2ccccc2C(=O)N1c1ccc(OC)cc1 (configuration not stated)	i
C=CCNC(=O)c1c(Cl)cccc1Cl	i
CC1CCC(NC(=O)Cn2c3c(c(-c4ccccc4Cl)cc2=O)CCC3)CC1 (configuration not stated)	1.9
CCOC(=O)CC(Nc1nc(N2CCOCC2)nc(N2CCOCC2)n1)c1ccccc1Cl (configuration not stated)	0.0
Cc1nnc(-c2cnn(C)c2N)n1Cc1ccc(Cl)cc1	0.5
COc1ccc(C(NC(=O)c2ccco2)c2ccc(OC)c(OC)c2)cc1 (configuration not stated)	0.6
O=C(O)c1cc(S(=O)(=O)N2CCCCCC2)c(Cl)cc1Cl	0.4
COc1ccc(OC)c(-c2cc(C3CCN(c4ncccc4[N+](=O)[O-])CC3)[nH]n2)c1	i
O=C(NCc1ccco1)[C@@H]1CCCN1C(=O)c1cccs1	i
C=CCn1c(SCC(=O)NC2CCCCC2)nnc1C1CCCCC1	0.3
Cc1nn(CC#N)c(=O)n1-c1ccccc1	i
CCOC(=O)c1c(N)sc2c1CCCC2	i
CCCC(=Nc1ccccc1)C1=C(O)C(C(=O)OC)C(C)(C)CC1=O (configuration not stated)	i

An excerpt of these results, with each value named.
canonical_smiles: O=C1C=C(NCC2CCCO2)CC(c2ccccc2)C1 (configuration not stated)
- H5N1 antiviral: 0.4

canonical_smiles: CC(C)COP(=O)(c1ccc(N(C)C)cc1)C(O)c1ccncc1 (configuration not stated)
- H5N1 antiviral: i

canonical_smiles: COC(=O)c1sccc1NC(=O)Nc1ccc(Cl)c(Cl)c1
- H5N1 antiviral: i

Part of the list above in order of count of non-hydrogen atoms, lowest first.
SMILES	H5N1 antiviral
C=CCNC(=O)c1onc(CSc2cccc(Cl)c2)c1C(=O)O	i
CCCC(=Nc1ccccc1)C1=C(O)C(C(=O)OC)C(C)(C)CC1=O (configuration not stated)	i
c1ccc2[nH]c(CN3CCN(c4ncnc5c4oc4ccccc45)CC3)nc2c1	3.0

Next part:
SMILES	H5N1 antiviral
Cc1cccc(C(=O)NC2CCN(C(=S)NCc3ccco3)CC2)c1	i
COc1ccc(C(=O)Nc2nc(-c3ccc(S(=O)(=O)N4CCOCC4)cc3)cs2)cc1	i
O=C(Nc1nccs1)C1(S(=O)(=O)c2ccc(Cl)cc2)CC1	0.1
CCOC(=O)C(c1ccccc1)N1CCN(c2ccc(OC)cc2)CC1 (configuration not stated)	i
O=C(Cn1nc(-c2ccc(Cl)cc2)ccc1=O)NCc1ccc2c(c1)OCO2	0.2
COc1ccccc1CNC(=O)C(CC(C)C)NC(=O)C1CCC(C)CC1 (configuration not stated)	i
COc1cc2c(cc1OC)CN(c1ccc(-c3ccccc3OC)nn1)CC2	i
COC(=O)[C@@H](NC(=O)Nc1cccc(OC)c1)C(C)C	0.5
O=C(NC1CCCCC1NC(=O)c1ccco1)c1ccco1 (configuration not stated)	i
O=C(Cn1ccc(C(F)(F)F)n1)Nc1ccc(S(=O)(=O)NCc2ccco2)cc1	i
CCc1nnc(NC(=O)CN2CCOCC2)s1	i
Cc1cc(=O)[nH]c(SCC(=O)N2CCCCCC2)n1	i
CS(=O)(=O)c1ccc2c(c1)SC1=NC(=O)/C(=C/c3ccco3)C(=N)N12	2.5
CC(C)c1ccc(NC(=O)N(CCc2nc3ccccc3[nH]2)C2CCCC2)cc1	2.4
COc1ccc(CCNC(=O)c2ccc(CS(=O)(=O)c3ccc(C)cc3)o2)cc1OC	0.2
CCOC(=O)N1CCN(C(=O)c2ccc3c(=O)n(CCOC)c(=O)[nH]c3c2)CC1	0.2
O=C(C1=C(O)C(=O)N(c2ncccn2)C1c1ccc(Cl)c(Cl)c1)c1ccco1 (configuration not stated)	i
Cc1ccc(CN2CC(C(=O)Nc3cc(S(C)(=O)=O)ccc3Cl)CC2=O)cc1 (configuration not stated)	i
CC12CCC(C(=O)N3CCN(c4ccccc4)CC3)(CC1=O)C2(C)C (configuration not stated)	1.6
Cc1oc2c(CN3CCCC3)c(O)ccc2c(=O)c1-c1ccccc1	0.8
Cc1oc2c(c1C(=O)c1ccc(Cl)cc1)C(=O)C(=O)c1ccccc1-2	i
O=C(Cc1cccs1)Nc1ccc(N2CCOCC2)cc1	i
O=C(c1scc2c1CCCC2)N1CCOCC1	0.0
CC(=O)OC1COC(N2CCc3cc([N+](=O)[O-])ccc32)C(OC(C)=O)C1OC(C)=O (configuration not stated)	i
CCOC(=O)Cn1nc(C)c(-c2ccccc2)c1N	1.1
c1cnc2c(SCc3ccc(-c4nnco4)cc3)cccc2c1	i
CC1Cc2ccccc2N1S(=O)(=O)c1cccc(C(=O)OCC(=O)NC2CCS(=O)(=O)C2)c1 (configuration not stated)	i
COc1cc(NC(=O)CN(c2ccc(C)cc2)S(=O)(=O)c2c(C)n[nH]c2C)cc(OC)c1	0.1
CC(=O)OCCCNc1cc(Sc2nc3ccccc3s2)c2nonc2c1[N+](=O)[O-]	i
COc1ccc(/C=C/C(=O)NC(=S)Nc2ccccc2C(=O)NC2CCCCC2)cc1	0.4

Five records picked at random from those above, as already listed:
SMILES	H5N1 antiviral
COc1ccc(C(NC(=O)c2ccco2)c2ccc(OC)c(OC)c2)cc1 (configuration not stated)	0.6
COc1ccc(OC)c(-c2cc(C3CCN(c4ncccc4[N+](=O)[O-])CC3)[nH]n2)c1	i
CCN(CC)S(=O)(=O)c1cc(C(=O)N2CCc3ccccc32)ccc1Cl	i
CCOc1c2ccc(C(=O)NCc3ccccc3OC)cc2nn1CC	0.4
O=C(NCc1cccs1)C1CCCN(c2ncccn2)C1 (configuration not stated)	i

High-throughput results: PubChem BioAssay, SRMLSC

This is a subset; the hit share may differ from the screen's.
